# Mtb H37Rv – Mycobacterium tuberculosis H37Rv growth inhibition, cell based, confirmatory dose response (AID 1949); most inactive calls were filed without a number and no value below 0 was filed; inhibition, % at 10 µg/mL; hits with a dose series show IC50 in µg/mL; actives 1.6% (n = 100,000);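 active = confirmed in a dose series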;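 also: bacteria grown 7 days with compound before Alamar blue readout; 0% = untreated bacteria and 100% = reference antibiotic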
# Starred values were filed as active, the others as inactive; i = inactive. Some of the compounds tested; the hit share may differ from the screen's.
SMILES,Mtb H37Rv
CCCCn1c2ccccc2c2nnc(SCCN3CCOCC3)nc21,i
O=C(Nc1ccccc1)C1CC(=O)N(c2ccc3c4c(cccc24)CC3)C1 (stereo not given),i
O=C(Nc1ccc(F)cc1F)C1CCN(C(=O)c2ccc(Cl)cc2)CC1,1%
COCCSc1nnc(NS(=O)(=O)Cc2ccccc2)s1,1%
O=C(CSCc1nc2sc3c(c2c(=O)[nH]1)CCCC3)NC1CCCCC1,i
O=C(CSc1nnc2ccc3ccccc3n12)Nc1ccc(Cl)cc1,i
CCc1ccc(S(=O)(=O)N2CCN(c3ccccc3)CC2)cc1,3%
O=C(CSCc1c(F)cccc1Cl)Nc1cccnc1,i
Cn1ncc(C#N)c1NC(=O)C1CC(c2ccc(Cl)c(Cl)c2)=NO1 (stereo not given),i
Cc1ccc(C(=O)CCC(=O)Nc2ccc(Cl)cc2)c(C)c1,i
c1ccc2c(OCCCN3CCNCC3)cccc2c1,i
CCc1cc(I)ccc1NC(=S)NC(=O)c1cccs1,i
C=CCn1c(SCC#CCO)nc2ccccc2c1=O,i
CC(C)NC(=S)NC(=O)c1ccc(Cl)cc1Cl,i
C=CCN(CC=C)S(=O)(=O)c1ccc2nc(N)sc2c1,i
Cc1ccc(C(=O)Nc2ccc(I)cc2C(=O)NCC2CCCO2)cc1 (stereo not given),i
Cc1cc(-c2nc3ncccc3o2)ccc1NC(=S)NC(=O)COc1ccc(Cl)cc1C,i
CCOC(=O)c1c(NC(=O)c2ccccc2C)sc(C(=O)Nc2ccccc2F)c1C,i
O=C1CC(SCCc2nc3ccccc3[nH]2)C(=O)N1c1cccc(F)c1 (stereo not given),i
COc1ccc(C(=O)C(Cc2ccccc2)N(C)C)cc1 (stereo not given),i
CCc1cc2c(=O)n(-c3ccc(Br)cc3)cnc2s1,i
COC(=O)c1c(NC(=O)c2ccccc2Br)sc2c1C(C(=O)OC)CC2 (stereo not given),i
CCn1c(SCC(=O)Nc2cccc(C(=O)O)c2)nnc1C(C)Oc1ccccc1 (stereo not given),i
CCOc1ccc(CN2CCC(N3CCOCC3)CC2)cc1,i
O=C(c1ccco1)N1CCN(C(=S)NCc2ccc(Cl)cc2)CC1,2%

# Shown with each value named: part of the list above.
O=C1CC(SCCc2nc3ccccc3[nH]2)C(=O)N1c1cccc(F)c1 (stereo not given)
  Mtb H37Rv: i
COc1ccc(C(=O)C(Cc2ccccc2)N(C)C)cc1 (stereo not given)
  Mtb H37Rv: i
CCc1cc2c(=O)n(-c3ccc(Br)cc3)cnc2s1
  Mtb H37Rv: i
COC(=O)c1c(NC(=O)c2ccccc2Br)sc2c1C(C(=O)OC)CC2 (stereo not given)
  Mtb H37Rv: i

# (further entries)
SMILES,Mtb H37Rv
O=C(CSc1ccc(Cl)cc1)Nc1cccc(-c2nnc(-c3ccco3)o2)c1,i
O=C(NC(=S)Nc1ccc(N2CCN(C(=O)c3cccs3)CC2)cc1)c1sc2ccccc2c1Cl,24%
O=C(Nc1ccc2c(c1)OCCO2)C1CCN(C(=O)c2ccc([N+](=O)[O-])cc2)CC1,i
COC(=O)C1C(=O)C2=C(CC1C)Nc1ccccc1NC2c1c(F)cccc1Cl (stereo not given),i
COc1cc(CO)c(Br)cc1OCC(=O)O,i
CCN(CC)c1ccc(/C=C(\C#N)S(=O)(=O)c2ccc(C)cc2)cc1,5%
Cc1ccc(C(=O)N/C(=C/c2cccs2)C(=O)NCc2ccco2)cc1,i
CC(=O)c1ccc(OCc2ccccc2)cc1C,2%
COc1ccc(NC(=O)CCN2CCCCCC2)cc1,i
COC(=O)c1ccc(NC(=O)Cc2ccccc2)cc1,2%
C=CCn1c(SCc2ccc(OC)cc2)nnc1-c1cccc(C)c1,46%
CCCCOc1ccc(NS(=O)(=O)c2cc(F)ccc2OC)cc1,8%
COC(=O)c1cc2cccc(OC)c2oc1=O,0%
CCOc1ccc(C(=O)OC2CCN(C)CC2)cc1,5%
O=C(Nc1ccc(S(=O)(=O)Nc2nccs2)cc1)NC1CCCCC1,9%
C=C(C)Cn1c(SCC(=O)Nc2nccs2)nc2sc3c(c2c1=O)CCCC3,i
NC(=O)C1CCN(C(=O)NC23CC4CC(CC(C4)C2)C3)CC1,i
Cc1ccc(OCCCCN2CC(C)OC(C)C2)cc1C (stereo not given),i
O=C(COc1ccc(C=C2C(=O)NC(=O)NC2=O)cc1)NCC1CCCO1 (stereo not given),i
Cc1ccc(CNCc2cccnc2)cc1,i
O=C(CN1CCCC1)Nc1ccc(S(=O)(=O)N2CCCC2)cc1,i
CC(C)(C)c1ccc(S(=O)(=O)N2CCN(c3ccccc3Cl)CC2)cc1,i
CCC(C)Sc1nc2c(c(=O)[nH]1)C(c1cccc(OC)c1)C1=C(CC(C)(C)CC1=O)N2 (stereo not given),i
Oc1ccc(C(=S)N2CCCCCC2)cc1,i
CCC(Sc1nnc(C)s1)C(=O)Nc1ccc(Cl)cc1 (stereo not given),i
# Next section
SMILES,Mtb H37Rv
Cc1ccccc1C(=O)Nc1sc2c(c1C(=O)OC(C)C)CCCCC2,i
CCN(CC)S(=O)(=O)c1ccc(NC(=O)c2ccc(Cl)cc2Cl)cc1,16%
COC(=O)c1c(NC(=O)c2cc(OC)c(OC)c(OC)c2)sc(C)c1C,i
Cc1cccc(N(CC(=O)Nc2ccc(I)cc2C)S(C)(=O)=O)c1,1%
O=c1c2cc(-c3ccccc3)sc2nc2c3ccccc3c(-c3ccccc3)nn12,i
COCCNc1oc(-c2ccco2)nc1S(=O)(=O)c1ccccc1,i
O=C(NC(Cc1ccccc1)C(=O)NC1CC1)OCc1ccccc1 (stereo not given),i
Clc1ccc(OCCN2CCCCC2)c(Cl)c1,i
Cc1ccc(S(=O)(=O)Nc2ccccc2CNc2ccc(C)c(C)c2)cc1,i
C=CCn1c(SCC(=O)NCc2ccco2)nc2sc3c(c2c1=O)CCCCC3,i
COc1cc(CNCCCCO)ccc1OCc1ccccc1F,i
COc1cc(C(=S)N2CCOCC2)ccc1OCC(=O)NCc1ccccc1,i
COC(=O)C1=C(CN2CCc3ccccc32)NC(=O)NC1c1cc(C)ccc1C (stereo not given),27%
COC(=O)C1=C(C)N(C)C(=O)NC1c1cc(Cl)cc(Cl)c1OC (stereo not given),2%
COc1ccccc1OS(=O)(=O)c1ccc(C)cc1,i
Cc1ccc(NC(=O)CCSc2nnc3ccccn23)cc1,i
O=c1cc(-c2ccccc2)[nH]n1-c1ccc(Br)cc1,i
CCn1c2ccccc2c2cc(NC(=O)Oc3ccccc3)ccc21,i
S=C(NCc1ccco1)NN1CCOCC1,i
CCOc1ccccc1NC(=O)CN(Cc1ccccc1C)S(=O)(=O)c1ccc(Cl)cc1,i
Cc1ccsc1/C=C/c1cc(C(F)(F)F)[nH]c(=O)n1,20%
Cc1cc(Cl)c(Cl)cc1S(=O)(=O)Nc1ncccc1C,i
COc1ccc(OC(=O)c2ccc(Br)c(S(=O)(=O)N3CCCCC3)c2)cc1,i
O=C(COc1ccc(Cl)cc1)Nc1ccccc1NC(=O)COc1ccc(Cl)cc1,i
COc1ccc(CNc2nccs2)c(O)c1,i
# More compounds.
SMILES,Mtb H37Rv
FC(F)(F)c1ccccc1NC(=S)Nc1ncn(Cc2ccc(Cl)c(Cl)c2)n1,4%
CC(C)C(=O)Nc1cccc(NC(=O)c2cc(I)ccc2Cl)c1,3%
Cc1onc(-c2ccccc2Cl)c1C(=O)N(Cc1nc(-c2ccccc2)no1)C(C)C,4%
CCOC(=O)C1=C(CN2CCc3ccccc32)NC(=O)NC1c1ccc2c(c1)OCO2 (stereo not given),i
O=C(Nc1ccccc1[N+](=O)[O-])c1ccc(-c2cc(Cl)ccc2Cl)o1,i
Cc1cc([N+](=O)[O-])ccc1NC(=S)NC(=O)C1CCCCC1,i
CC(=O)c1cccc(NS(=O)(=O)c2ccc(-c3ccc(C)cc3)cc2)c1,i
CCc1ccc(Nc2ncc3c(n2)CC(C)CC3=O)cc1 (stereo not given),i
CCOc1ccccc1N1CCN(C(=O)Nc2ccc(C(C)=O)cc2)CC1,i
COCCNC(=O)CC(c1ccccc1)c1ccccc1,0%
COc1ccc(S(=O)(=O)Nc2ccccc2C(=O)NC(C)C)cc1OC,i
CC(C)(C)SCCNC(=O)CN(c1cccc(Cl)c1)S(C)(=O)=O,0%
CCOC(=O)c1ccc(NC(=S)NNC(=O)c2c(Br)c(C)nn2C)cc1,i
Cc1cccc(OC(=O)COc2ccc(Cl)cc2)c1,i
CCc1cccc(CC)c1NC(=O)c1ccccc1F,i
COc1cc(N/C(N)=N/c2nc3c(c(=O)[nH]2)CCCC3)cc(OC)c1,i
O=C(NC1CCCC1)c1ccccc1CCc1ccccc1,i
COc1cccc(C2NC(=O)NC(C)=C2C(=O)Nc2ccc(Cl)cc2)c1 (stereo not given),i
CS(=O)(=O)N1CCN(C(=O)c2cc(Cl)ccc2Cl)CC1,i
O=C(Nc1ccccc1[N+](=O)[O-])c1ccc(NC(=O)c2ccc(Cl)cc2Cl)cc1,3%
CCOC(=O)C1=C(C)Nc2nnnn2C1c1ccccc1 (stereo not given),7%
CCOC(=O)c1c(NC(=O)CC2Nc3ccccc3NC2=O)sc(C)c1C (stereo not given),i
O=C(CCc1ccccc1)Nc1ccc(Cl)c(Cl)c1,12%
COC(=O)C1C2C=CC3(CN(c4ccccc4Cl)C(=O)C13)O2 (stereo not given),i
CCc1cccc(CC)c1NC(=O)CN(c1cc(C)ccc1C)S(=O)(=O)c1ccc(C)cc1,i

# Molecules above containing a thiophene ring, fused or not (14):
SMILES,Mtb H37Rv
O=C(CSCc1nc2sc3c(c2c(=O)[nH]1)CCCC3)NC1CCCCC1,i
CCc1cc(I)ccc1NC(=S)NC(=O)c1cccs1,i
CCOC(=O)c1c(NC(=O)c2ccccc2C)sc(C(=O)Nc2ccccc2F)c1C,i
CCc1cc2c(=O)n(-c3ccc(Br)cc3)cnc2s1,i
COC(=O)c1c(NC(=O)c2ccccc2Br)sc2c1C(C(=O)OC)CC2 (stereo not given),i
O=C(NC(=S)Nc1ccc(N2CCN(C(=O)c3cccs3)CC2)cc1)c1sc2ccccc2c1Cl,24%
Cc1ccc(C(=O)N/C(=C/c2cccs2)C(=O)NCc2ccco2)cc1,i
C=C(C)Cn1c(SCC(=O)Nc2nccs2)nc2sc3c(c2c1=O)CCCC3,i
Cc1ccccc1C(=O)Nc1sc2c(c1C(=O)OC(C)C)CCCCC2,i
COC(=O)c1c(NC(=O)c2cc(OC)c(OC)c(OC)c2)sc(C)c1C,i
O=c1c2cc(-c3ccccc3)sc2nc2c3ccccc3c(-c3ccccc3)nn12,i
C=CCn1c(SCC(=O)NCc2ccco2)nc2sc3c(c2c1=O)CCCCC3,i
Cc1ccsc1/C=C/c1cc(C(F)(F)F)[nH]c(=O)n1,20%
CCOC(=O)c1c(NC(=O)CC2Nc3ccccc3NC2=O)sc(C)c1C (stereo not given),i

# The list continues:
SMILES,Mtb H37Rv
COc1ccccc1OCC(=O)Nc1ccc(-c2ccc(NC(=O)COc3ccccc3OC)cc2)cc1,i
CCN(CC)c1ccc(NC(=O)c2ccc(C)c(C)c2)c(C)c1,8%
Cc1ccc(OCCCSc2ncccn2)c(I)c1,12%
Cc1cc(C)nc(SCCC(=O)N2CCOCC2)n1,i
O=C(O)C1C2C=CC(C2)C1C(=O)Nc1nccs1 (stereo not given),i
CCOc1cc(C(=O)Nc2ccc(Cl)c(C(F)(F)F)c2)cc(OCC)c1OCC,i
O=C(C1CCN(S(=O)(=O)c2cc(Cl)ccc2Cl)CC1)N1CCOCC1,i
O=C(Nc1ccc(N2CCN(Cc3ccccc3Cl)CC2)cc1)c1cccs1,i
COc1ccc(CCNC(=O)CSCc2c(F)cccc2Cl)cc1OC,i
COc1ccc(C2(C(=O)NCCc3ccccc3)CCOCC2)cc1,1%
CCOC(=O)CCc1c(C)c2ccc(OCC(=O)c3ccc(C)cc3)cc2oc1=O,i
CC(C(=O)NCCC1=CCCCC1)c1ccc([N+](=O)[O-])cc1 (stereo not given),i
CC1=CC(C)C(CNCCN2CCNCC2)C(C)C1 (stereo not given),i
O=C(Nc1ccc(N2CCOCC2)cc1)c1sc2cc(F)ccc2c1Cl,1%
COC(=O)c1ccc(NC(=S)NCCO)cc1,i
Cc1nc(-c2cccc(NC(=O)c3cc4cc(Br)ccc4oc3=O)c2)cs1,i
O=C(Nc1ccc2c(c1)OCO2)NN1CCOCC1,i
CCN(CC)C(=O)c1sc(NC(=O)c2cccs2)c(C(=O)OC)c1C,i
COc1ccc(NC(=O)CSc2ccc(Nc3ccc(OC)cc3)nn2)cc1,i
CC1(C)Cc2c(sc3ncn4nc(Cc5ccccc5)nc4c23)CO1,i
O=C(CSc1ccccc1)NCCCc1ccccc1,i
O=S(=O)(c1ccc(F)cc1)N1CCN(c2ccc(Cl)c(Cl)c2)CC1,i
Cc1cc(OC(=O)c2cccs2)c2c(C)cc(=O)oc2c1,i
O=C(NCc1ccccc1)NC(c1ccccc1)c1ccccc1,i
CC(=O)c1nc(N2C(=O)CC(Cc3cc(C)cc(C)c3)C2=O)sc1C (stereo not given),i
# Remaining list, next part.
SMILES,Mtb H37Rv
N#CCSc1nnc(-c2cccs2)n1-c1ccccc1,i
CC(=O)Oc1ccc(-c2cccc(C(=O)NCC(=O)O)c2)cc1,i
Cc1ccc(N2CCN(C(=S)Nc3ccccc3C(F)(F)F)CC2C)cc1 (stereo not given),i
COc1cccc(COc2ccc3c(c2)oc(=O)c2cc(OC)ccc23)c1,i
Cc1cccc(CN(CC(=O)Nc2cccc(F)c2)S(=O)(=O)c2ccc(Cl)cc2)c1,i
Cc1ccc(-n2c3c(cc(C(=O)Nc4ccc(Br)cn4)c2=O)C(=O)CC(C)(C)C3)cc1,i
O=C(CSC(C(=O)c1ccccc1)c1ccccc1)Nc1ccccc1 (stereo not given),i
COc1ccc(-n2nnnc2SCC(N)=O)cc1,i
COc1cc(C)c(S(=O)(=O)N2CCc3ccccc32)cc1C,i
O=C1c2ccccc2-c2ncnc3cccc1c23,i
CCOc1ccccc1NC(=S)NC(=O)c1ccccc1,1%
COc1ccc(C2CC(=O)n3nc(-c4ccccc4)nc3S2)cc1 (stereo not given),i
N#C/C(=C\c1cn(CCC(N)=O)c2ccccc12)Sc1nc2ccccc2s1,36%
CCC(C)N1CCC(N(C)Cc2ccccc2)CC1 (stereo not given),i
CCc1ccc(OCC(=O)Nc2ccc(C#N)cc2)cc1,48%
CC(C)(O)C#Cc1ccc(C(=O)N2CCN(c3ccc(F)cc3)CC2)cc1,i
Cc1ccc(C)c(OCC(=O)Nc2ccc(NC(=O)c3cccs3)c(C)c2)c1,i
